LASV entry inh: Lassa virus entry inhibition | Lassa virus pseudotyped entry inhibition, cell-based qHTS; control for the full effect not named in the record; many of its hits are not listed in these tables | Potency, µM (doses to about 49.2 µM), inactives show top-dose activity change, negative = inhibition, usual class: inhibitors | hit rate 4.1% among 18,000 | AID 720533; active = well fitted inhibition curve with a large enough effect; inconclusive = small, poorly fitted or top-dose-only effect; inactive = no such curve, though single readings can be large or run the other way; tested in HEK293 cells; also: luciferase read-out
Marburg entry: Marburg virus entry inhibition; hit rate 6.5% among 18,000; AID 720532; Potency, µM (top dose mostly 49.2 µM), without a hit: at the highest dose activity change, negative = inhibition, usual class: inhibitors; Marburg virus pseudotype entry/binding inhibition, cell-based; control for the full effect not named in the record; many of its hits are not listed in these tables; active means well fitted inhibition curve with a large enough effect; inconclusive means small, poorly fitted or top-dose-only effect; inactive means no such curve, though single readings can be large or run the other way; tested in HEK293 cells; also: luciferase read-out
The depositor's hits bear a star; ? = inconclusive; / = no result given; & = joins results of further samples; [ ] = dose if it differs, or a comment. % is scaled to controls: 0 for no effect and ±100 for the full control effect; potency is read from the fitted curve at half-maximal effect. The list is partial; rates above refer to the full screens.

Compound	LASV entry inh	Marburg entry
O=c1c(O)cccc2cc(O)c(O)c(O)c12	5%	?
O=C(O)C1=CCCN(CCON=C(c2ccccc2)c2ccccc2)C1	-17%&-15%	12%&-3%
CC(C)(C)c1ccc(O[C@@H]2[C@H](O)CO[C@@H]2C=CC#Cc2ccccc2)cc1	-28%[8.59 µM]	-9%[8.59 µM]
CC(C)CC1C(=O)N(Cc2cn(Cc3ccco3)nn2)CCS(=O)(=O)N1Cc1ccc(-c2cccc(N(C)C)c2)cc1 (stereo unspecified)	16%	11%
CC(C)C[C@H]1COc2c(Cl)cccc2S(=O)(=O)N1Cc1ccc(Cl)cc1	?	-23%
C=C(C(=O)O)[C@@H]1CC[C@@]2(C)CCC[C@](C)(O)[C@@H]2C1	0%	1%
CCCN(CCC)Cc1cc(=O)oc2ccccc12	26%	15%
NC(=O)C1O[C@@H](O)[C@H](O)[C@@H](O)[C@H]1O (stereo partly specified)	-2%	7%
C=C[C@](C)(O)CCC1C(=C)CC(OC(C)=O)C2C(C)(C)CCCC12C (stereo partly specified)	?	-27%
Cc1ccsc1C(=O)N(Cc1cc2cc3c(cc2nc1N1CCOCC1)CCC3)CC1CCCO1 (stereo unspecified)	-6%	-13%
Cc1ccc(O)c2ncccc12	12%	33%[activator]
C[C@H](CC[C@@H]1OC1(C)C)C1CC[C@H]2[C@@H]3CC=C4C[C@@H](O)CC[C@]4(C)[C@H]3CC[C@]12C (stereo partly specified)	-10%	13%

Carrying on:
Compound	LASV entry inh	Marburg entry
COc1cc2nc(N3CCCC(O)C3)c(CNCc3ccccc3C(F)(F)F)cc2c(OC)c1OC (stereo unspecified)	-12%	11%
COc1ccc(S(=O)(=O)NCc2nc(N3CCCC3)c3cccc(C)c3n2)cc1OC	-13%	?
CN(C)C(=O)c1ccc(-c2nc(Nc3ccncc3)c3ccccc3n2)cc1	-9%	-41%
Cc1ncoc1C(=O)N1CCOc2ccc(CN3CCN(c4ccccn4)CC3)cc2C1	-5%	-7%
CN1CCc2cc3c(c4c2[C@H]1Cc1ccccc1-4)OCO3	-20%	?
COc1cc(C(=O)N2CCCCCCC2)cc(OC)c1OC	-20%	-5%
C[C@@H](NC(=O)/C(C#N)=C/c1ccc(O)c(O)c1)c1ccccc1	-11%	5%
C=CC[C@]1(O)CC[C@H]2[C@@H]3CCC4=CCCC[C@@H]4[C@H]3CC[C@@]21C	-14%	-18%
COc1cccc(-n2c(SC)nnc2C2CCN(Cc3nc4ccccc4s3)CC2)c1	-21%	?
CC1(C)O[C@H]2OC([C@H](O)CON3C(=O)c4ccccc4C3=O)[C@H](O)[C@@H]2O1 (stereo partly specified)	-9%[8.59 µM]	?
COc1cc(CCN2C(=O)NC(c3ccccc3)C(C(C)=O)=C2C)cc(OC)c1OC (stereo unspecified)	9%[8.59 µM]	6%[8.59 µM]
OC[C@H]1OC(O)[C@@H](O)[C@@H](O)[C@H]1O (stereo partly specified)	6%	7%

Next results follow.
Compound	LASV entry inh	Marburg entry
CC(=O)Nc1ccc(OS(=O)(=O)O)cc1	2%	12%
C=CCc1ccc(OC(=O)c2ccccc2)c(OC)c1	2%	1%
CC(C)Oc1ccc2c(=O)c3cc(C(=O)O)ccc3oc2c1	27%	1%
CC1(OC(=O)CCc2ccccc2)C(=O)C=C2C=C(C3CC3)OC=C2C1=O (stereo unspecified)	-21%	-22%
C=CCOC(=O)[C@H](O)[C@@H](O)C(=O)OCC=C	0%	-7%
CC(=O)OC1CCC2(C)C3=C(CCC2C1(C)C)[C@]1(C)CCC(C(C)CCC=C(C)C)[C@]1(C)CC3 (stereo partly specified)	6%	-17%
C[C@H](O)[C@H](O)[C@H]1CNc2nc(N)[nH]c(=O)c2N1	-7%	1%
CC1(C)CC(=O)C([C@H]2C3=C(CC(C)(C)CC3=O)Oc3ccccc32)C(=O)C1	3%	-16%
CC1(O)C(=O)C=C2C=C(CCCCOCc3ccccc3)OC=C2C1=O (stereo unspecified)	9%[8.59 µM]	47%[activator][8.59 µM]
O=C(O)/C=C/c1ccccc1	-7%	-6%
COc1ccc2c(c1)C(=O)[C@H](O)[C@@H](c1ccc(OC)c(Br)c1)O2	-3%	14%
OC[C@@H]1CCCN2CCCC[C@@H]12	-8%	-4%

The list goes on:
Compound	LASV entry inh	Marburg entry
COC(=O)[C@]1(C)CCC[C@]2(C)c3ccc(C(C)C)cc3C(=O)CC12 (stereo partly specified)	-5%	-19%
O=S1(=O)N[C@H](Cc2ccccc2)COc2cccc(NCCO)c21	11%	25%
CC(C)C(N)C(=O)NC(Cc1c[nH]c2ccccc12)C(=O)O (stereo unspecified)	8%	1%
CCOC(=O)[C@@H]1CSCCS(=O)(=O)N1Cc1ccccc1Br	/	11%
CC(CCN1CCCc2nc(C)c(C)cc21)=NO[C@H](C)c1cn([C@@H]2COC[C@@H]2O)nn1	/	7%[8.59 µM]
COc1ccc(-c2ccc(CN3C(C(C)C)C(=O)N(Cc4cn(CCC5OCCCO5)nn4)CCS3(=O)=O)cc2)cc1OC (stereo unspecified)	16%	3%
Cc1ncc2c(c1CNS(=O)(=O)N(C)C)CCN(C(=O)/C=C/c1cccc(F)c1)C2	-15%	-7%
CC(Oc1ccccc1)C(=O)N[C@@H]1C(=O)N2[C@@H]1SC(C)(C)[C@@H]2C(=O)O (stereo partly specified)	0%[17.8 µM]	16%[17.8 µM]
O=C(c1ccco1)N1CCN(C2CN(CCc3ccccc3)S(=O)(=O)C2)CC1 (stereo unspecified)	-11%	-6%
O=C(NC1CC1)c1cccc(NC(=O)C2CC2)c1	-17%	20%
O=CN1CCCCC1C1CC[C@H]2CCCCN2C1 (stereo partly specified)	11%	7%
O=c1ccc2[nH]cc(C3=CCNCC3)c2[nH]1	-17%	13%

Structures listed so far containing a COOH group, in the order listed:
Compound	LASV entry inh	Marburg entry
O=C(O)C1=CCCN(CCON=C(c2ccccc2)c2ccccc2)C1	-17%&-15%	12%&-3%
C=C(C(=O)O)[C@@H]1CC[C@@]2(C)CCC[C@](C)(O)[C@@H]2C1	0%	1%
CC(C)Oc1ccc2c(=O)c3cc(C(=O)O)ccc3oc2c1	27%	1%
O=C(O)/C=C/c1ccccc1	-7%	-6%
CC(C)C(N)C(=O)NC(Cc1c[nH]c2ccccc12)C(=O)O (stereo unspecified)	8%	1%
CC(Oc1ccccc1)C(=O)N[C@@H]1C(=O)N2[C@@H]1SC(C)(C)[C@@H]2C(=O)O (stereo partly specified)	0%[17.8 µM]	16%[17.8 µM]

Next part:
structure,LASV entry inh,Marburg entry
CC1C(=O)N(Cc2cn(CCC3OCCO3)nn2)CCS(=O)(=O)N1Cc1ccc(-c2cccc(CO)c2)cc1 (stereo unspecified),23%,23%
CC(=O)N[C@@H](Cc1ccc(O)cc1)C(=O)O,-11%,13%
CS(=O)(=O)Nc1cccc(-c2nc(Nc3ccccc3)c3ccccc3n2)c1,?,?
CN[C@@H]1[C@H](O[C@@H]2O[C@H](C)[C@@](O)(CO)[C@H]2O[C@H]2[C@H](O)[C@H](O)[C@H](N=C(N)N)[C@@H](O)[C@@H]2N=C(N)N)O[C@@H](CO)[C@H](O)[C@H]1O,-16%,8%
O=c1c2ncn([C@@H]3O[C@@H]4COP(=O)(O)O[C@H]4[C@H]3O)c2nc2[nH]c(-c3ccccc3)cn12,-6%,-1%
CCCCC/C=C\C/C=C\C/C=C\C/C=C\CCCCCC(=O)NCCO,-5%&-3%&4%&5%,4%&27%&11%&-3%
CC=CC1=CC2=CC(=O)C(C)(OC(=O)c3c(C)cc(O)cc3O)C(=O)C2=CO1 (stereo unspecified),/,-2%[8.59 µM]
CCCC1COC(Cn2cncn2)(c2ccc(Cl)cc2Cl)O1 (stereo unspecified),13µM*,11µM*
CC1OC(O[C@@H]2C(O)CC(O[C@@H]3C(O)C[C@@H](OC4CC[C@]5(C)[C@H](CC[C@H]6[C@@H]5CC[C@]5(C)C(C7=CC(=O)OC7)C(O)C[C@@]65O)C4)OC3C)OC2C)CC(O)C1O (stereo partly specified),5µM*,0.63µM*
CC(=O)OC1CC[C@]2(C)C(CC(OC(C)=O)[C@@]3(C)C4=CC(=O)OC(c5ccoc5)[C@]4(C)CCC23)C1(C)C (stereo partly specified),?,?
CN1CCCC[C@@H]1CCN1c2ccccc2Sc2ccc(S(C)=O)cc21 (stereo partly specified),0%[17.8 µM],?
O=C(NCCc1ccccc1)c1cccc(NC(=O)c2ccccc2)c1,35%[activator],45%[activator]
CC(=O)NCCNc1nc(-c2ccccc2C(F)(F)F)nc2ccccc12,-6%,-6%
COc1ccc2c(c1)OC(=O)CC2c1ccc2c(c1)OCO2 (stereo unspecified),?,?
C[C@@H]1CC2CCC[C@@H]2[C@]2(O1)C(=O)Nc1cccc(Br)c12 (stereo partly specified),72%[activator][8.59 µM],8%[8.59 µM]
CCn1c(-c2cccnc2)nc2cc(NC(=O)COC)cc(C(=O)N3CC[C@@H]4CCCC[C@H]4C3)c21,-10%,9%
NC(=O)O,-10%,23%
C#C[C@]1(O)CC[C@H]2[C@@H]3CCC4=CC(=O)CCC4=C3C=C[C@@]21CC,?,7%
COc1ccc([C@H]2C[C@@H](n3cc(COC(=O)c4ccccc4)nn3)[C@H](O)CN2C(=O)C2CCCCC2)cc1,/,-22%
CN(C)c1nc(N(C)C)nc(N(C)C)n1,8%[17.8 µM],2%[17.8 µM]
CCOC(=O)N1CCN(Cc2ccc3c(c2)CN(C(=O)c2ccc(C#CC(C)(C)O)o2)CCO3)CC1,?,?
c1ccc(CN(CCN(Cc2ccccn2)Cc2ccccn2)Cc2ccccn2)nc1,10µM*,10µM*
CC1CCC2[C@](C)(CO)C(O)CC[C@]2(C)C12CCC(CO)(CCO)O2 (stereo partly specified),4%,4%
O=C1OCCN1C(=O)[C@H]1[C@H](c2ccccc2)C(c2ccccc2)=NN1c1ccccc1,-12%,-17%
C=C(C)C(O)C=Cc1ccccc1OC (stereo unspecified),1%[8.59 µM],6%[8.59 µM]
O=C(O)CCC/C=C\C[C@@H]1[C@@H](/C=C/[C@@H](O)COc2cccc(C(F)(F)F)c2)[C@H](O)C[C@@H]1O,-1%&-7%,-16%&1%
COc1cc(C=NNc2ncnc3c2cnn3-c2ccccc2)ccc1O,?,14µM*
CCO[C@H]1[C@H](NC(=O)c2cccnc2)c2ccccc2C12CCN(C(=O)c1cc(C)n(C)n1)CC2,1%,8%
CNCCNS(=O)(=O)c1cccc2cnccc12,23%,-16%
COc1ccccc1N1CCN(CC2CN3C(=O)N(C)c4ccccc4C3=N2)CC1 (stereo unspecified),5%,7%

The results go on:
structure,LASV entry inh,Marburg entry
O=C(O)[C@H](O)[C@@H](O)[C@H](O[C@@H]1O[C@H](CO)[C@H](O)[C@H](O)[C@H]1O)[C@H](O)CO,0%[17.8 µM],4%[17.8 µM]
C[C@@H](c1ccccc1)N1C(=O)[C@@H]2[C@H]3[C@H](O)[C@H](O)CC(=NNC(=O)OCc4ccccc4)[C@@H]3CC[C@H]2C1=O,-28%[8.59 µM],-18%[8.59 µM]
COC(=O)CC=C[C@@H](C)[C@H](OC)c1cc(F)ccc1Br,-10%[8.59 µM],59%[activator][8.59 µM]
COc1cc(C[C@@H]2NCCc3cc(O)c(O)cc32)cc(OC)c1OC,4%,11%
CC(C)C[C@@H](CC(=O)N[C@@H](CCC(=O)O)CC(=O)O)NC(=O)[C@@H]1CCCC[C@H]1NC(=O)C[C@@H](NC(=O)C[C@H](Cc1ccccc1)NC(=O)[C@@H]1CNCC[C@H]1N)C(C)C,1%,-3%
CCCCc1cc2c(cn1)=C(OC(=O)c1cccs1)C(C)(OC(=O)CC)C(=O)C=2 (stereo unspecified),1%[8.59 µM],28%[8.59 µM]
COC(=O)CC1C(=O)NCCN1C(=O)CN1Cc2ccccc2OC(c2ccccc2)C1 (stereo unspecified),-16%,0%
OC[C@@H]1[C@@H](c2ccc(Cl)cc2)C(c2ccc(F)cc2)=NN1c1ccccc1,-21%,-22%
O=C(NC(CC1=CCCCC1)c1ccccc1)C(F)(F)F (stereo unspecified),71%[activator][8.59 µM],59%[8.59 µM]
CC(C)C[C@H](NC(=O)c1ccc(NCc2cnc[nH]2)cc1-c1cccc2ccccc12)C(=O)O,-7%,61%[activator]
COC(=O)N[C@@H](c1cccc(F)c1)[C@]1(C(=O)OC)CCCC1=O,4%[8.59 µM],3%[8.59 µM]
CCCCCCCCCCCCCCCCCCc1ccc(C(=O)/C=C/C(=O)O)cc1,-7%,-12%
COc1ccc2c(=O)c(-c3ccc4c(c3)OCO4)coc2c1,12%,56%[activator]
Fc1ccc(C(OCCN2CCN(C/C=C/c3ccccc3)CC2)c2ccc(F)cc2)cc1,16µM*,8.9µM*
OC[C@@H](O)[C@H]1O[C@@H]2O[C@H](C(Cl)(Cl)Cl)O[C@@H]2[C@H]1O,?,-22%
COc1ccc(NC2C[C@H]3CCCC(=O)N4CC[C@@H](C2)[C@@H]34)cc1 (stereo partly specified),?,?
Cc1cnc(CNc2ncnc3ccc(-c4cccc(C#N)c4)cc23)cn1,-14%,-9%
CCC1CN(CC(=O)NCc2n[nH]c3c2CCCCC3)Cc2cc(OC)ccc2O1 (stereo unspecified),-20%,8%
Cc1ccc2c(-c3ccnc(Nc4cccc(C(F)(F)F)c4)n3)c(-c3ccccc3)nn2n1,/,4µM*

Compound activity: PubChem, National Center for Advancing Translational Sciences (NCATS)
